Source: PubChem
CtBP-E1A blk: CtBP/E1A binding inhibition | activity change, % (test concentration not listed) | AlphaScreen GST-E1A/His-CtBP binding, 1536-well; active compounds read low; control for the full effect not named in the record | 0.49% of 340,000 active; in the data active means activity change below about -65%; inconclusive means about -30% to -65%; inactive means above about -30%; note: % is set by controls: 0 for no effect and ±100 for the full control effect
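Protein mix (5X: 125 nM each GST-E1A, His-CtBP) was incubated with pinned compound 2 h at 37 deg C in dark, in 50 mM Tris pH 8.0 buffer with 300 mM NaCl. Glutathione donor and nickel acceptor beads followed; AlphaScreen signal read after 1 h.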
TRPML1 ag: human mucolipin-1 channel agonism | Q9GZU1 | TRPML1-expressing cells, Ca2+ dye fluorescence, FDSS; host cell line not named in the record; reference of the full effect not given here | activation, % (no concentration beside the values) | 0.12% of 410,000 active | AID 624414; in the data active = activation above about 50%; inconclusive = about 30% to 50%; inactive = below about 30%; note: 0% is about no effect; the text of the record puts the active cut at 80%
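Agonist activity was taken from a 110 s kinetic Ca2+ dye read on the FDSS after pinning compounds onto TRPML1-DL cells. The cells were seeded at 1,500/well with Tet inducer, incubated about 16 h, then dye-loaded at room temperature.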
D2 PAM: positive allosteric modulators of human D2 dopamine receptor | potentiation, % (concentration not given with the values) | 0.23% of 360,000 active | DiscoveRx D2 beta-arrestin cells, luminescence, 90 min; 100% = 57 uM dopamine signal | P14416; active = potentiation of 50% or more; inconclusive = 30% to 50%; inactive = 30% or less;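 note: compound concentration not given in the record; tested on top of an EC20 dose of dopamine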
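D2 cells co-treated with compound plus 50 nM dopamine (EC20) for 90 min at 37 deg C to detect potentiation. Beta-arrestin recruitment was read as enzyme-fragment luminescence after 1 h at ambient temperature. Full response was set by 57 uM dopamine.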
Six1-Eya2 inh: Six1/Eya2 interaction inhibition. Q15475+O00167. activity change, % (concentration not given with the values). AID 651725. AlphaScreen GST-Six1/His-Eya2 binding, biochemical; active compounds read low; control for the full effect not named in the record. 0.56% of 360,000 active; in the data active = activity change below about -65%; inconclusive = about -30% to -65%; inactive = above about -30%; note: % is set by controls: 0 for no effect and ±100 for the full control effect
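GST-Six1 + His-Eya2 (5X stock: 250/500 nM); Tris pH 8.0, 300 mM NaCl, 0.05% BSA, 0.02% Tween 20; GSH donor/Ni acceptor beads; 1 h 37 °C dark; AlphaScreen readout.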
TRPV1 potentiator: potentiators of human vanilloid receptor 1 (TRPV1); Q8NER1; TRPV1-expressing cells, Fluo-8 calcium influx, capsaicin EC20 potentiation; host cell line not named in the record; control for the full effect not named in the record; potentiation, % at 8.33 µM; 0.02% of 320,000 active; AID 540277; active means potentiation above 80%; inconclusive means 30% to 80%; inactive means below 30%; note: 0% is about no effect
Target sequence (Q8NER1 whole entry, looked up): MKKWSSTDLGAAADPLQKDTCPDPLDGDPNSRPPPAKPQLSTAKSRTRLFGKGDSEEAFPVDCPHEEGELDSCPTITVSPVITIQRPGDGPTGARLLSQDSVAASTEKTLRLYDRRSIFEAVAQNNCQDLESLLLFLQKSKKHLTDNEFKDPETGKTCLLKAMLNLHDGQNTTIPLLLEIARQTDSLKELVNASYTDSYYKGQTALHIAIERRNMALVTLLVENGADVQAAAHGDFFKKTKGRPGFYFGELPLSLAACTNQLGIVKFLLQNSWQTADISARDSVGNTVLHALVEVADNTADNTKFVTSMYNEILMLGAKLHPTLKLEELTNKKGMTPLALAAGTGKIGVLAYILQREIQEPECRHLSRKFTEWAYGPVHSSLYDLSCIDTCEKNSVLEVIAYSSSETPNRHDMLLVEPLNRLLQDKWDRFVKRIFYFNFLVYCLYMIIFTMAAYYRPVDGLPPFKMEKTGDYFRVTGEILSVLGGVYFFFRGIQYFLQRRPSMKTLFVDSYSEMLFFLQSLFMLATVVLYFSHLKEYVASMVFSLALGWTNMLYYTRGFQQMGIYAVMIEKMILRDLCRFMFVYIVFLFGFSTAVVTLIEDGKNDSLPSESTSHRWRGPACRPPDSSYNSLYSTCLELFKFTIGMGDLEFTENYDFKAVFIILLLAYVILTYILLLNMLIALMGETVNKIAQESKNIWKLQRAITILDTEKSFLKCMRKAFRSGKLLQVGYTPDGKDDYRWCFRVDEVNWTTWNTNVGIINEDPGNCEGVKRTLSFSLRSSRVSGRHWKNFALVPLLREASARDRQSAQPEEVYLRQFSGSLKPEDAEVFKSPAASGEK
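TRPV1-expressing cells were cultured overnight at 35.5C and loaded with Fluo-8 calcium dye for 40 to 90 min at room temperature. After a 10 s baseline, compound was added and calcium influx was read kinetically for 3 min (ex 480/em 520 nm).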
TRPML1 blocker: human mucolipin-1 channel inhibition; Q9GZU1; TRPML1-inducible cells, Ca2+ dye fluorescence, FDSS; active compounds read low; inhibition of EC80 agonist-evoked calcium signal; activity change, negative = inhibition, % (test concentration not listed); 0.02% of 390,000 active; AID 624415; in the data active means activity change below about -50%; inconclusive means about -30% to -50%; inactive means above about -30%;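 note: stimulus is agonist 54-4 at its EC80 concentration; % is set by controls: 0 for no effect and ±100 for the full control effect; compound concentration not given in the record; the text of the record puts the active cut at -80%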
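TRPML1-DL cells, Tet-induced overnight (~16 h, 37 °C) at 1,500 cells/well, were loaded with Ca8 no-wash dye plus quencher for 45-90 min at room temperature. Compounds were pinned during FDSS kinetic reading; agonist 54-4 at EC80 (4 uM final) then added.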
Numbers without * were called inactive; ? = inconclusive; . = not tested or not shown; & = joins results of further samples.

molecule,CtBP-E1A blk,TRPML1 ag,D2 PAM,Six1-Eya2 inh,TRPV1 potentiator,TRPML1 blocker
CCCCC(=O)Nc1ccccc1CC,-2,-0.3,-1,-3,30,3
CCc1ccc(OCC(=O)Nc2ccncc2)cc1,.,-0.1,-11,-3,1,10
O=C1NN=C2CCCCCCCCCCC12 (configuration not stated),-25,-0.3,-5,-1,.,-4
CCOC(=O)[C@@H]1[C@H]2COc3cc(OC)ccc3[C@@H]2N2C(=O)N(c3ccc(F)cc3)C(=O)[C@@]12C,-1,-0.4,-3,-1,.,9
CNC(=O)NC1CCCc2ccccc21 (configuration not stated),2,0.4,1,2,-18,-14
CCN(CC)CCn1c2c(c(SCC(=O)Nc3cc(C)on3)nc1=O)CCCC2,6,-1.0,-20,3,5,0
N=c1nc(SCCC(=O)O)ss1,-10,-0.7,15,15,7,-1
CC(O)CNc1nc(Cl)c(C#N)s1 (configuration not stated),4,0.3,-1,7,-1,-9
COc1ccc(-n2nc3c(c2NC(=O)C(C)Oc2ccccc2)CS(=O)(=O)C3)cc1 (configuration not stated),5,-0.6,-9,3,-10,8
COCCCC1CCN(C(=O)CCc2nnc(CCCCc3ccccc3)o2)CC1,.,2.9,-5,7,-15,-14
O=c1ccnc(NCCc2ccccc2)[nH]1,-5,-0.5,7,4,-25,-5
CC(C)CC1Nc2ncnc(N3CCN(c4ccccn4)CC3)c2N(Cc2ccc(Br)cc2)C1=O (configuration not stated),-9,0.1&0.1,-32&-21,-17&-16,-1,67&68
Cc1ccc[n+](CC(=O)c2ccc(Br)cc2)c1C,12,-0.3,-8,5,3,-2
CCCNC(=O)C1(S(=O)(=O)c2ccccc2)CC=CC1,5,-0.5,-7,4,18,7
CC(C)OP(=O)(c1ccc(N(C)C)cc1)C(O)c1ccc(N(C)C)cc1 (configuration not stated),.,0.8,-11,2,-9,-9
COc1ccc(-c2cc3nc(C)c(CCC(=O)NCc4ccco4)c(C)n3n2)c(OC)c1,-8,-0.9,6,-11,-13,-10
COc1ccc([C@@H]2[C@@H]3C(=O)N(C(C)(C)C)C(=O)[C@@H]3[C@]3(C)C(=O)N(c4ccc(C)cc4)C(=O)N23)cc1,0,0.0,-10,-5,-3,52
O=C(Nc1ccon1)c1nc[nH]c1C(=O)N1CCc2ccccc2C1,-1,-0.5,-10,4,2,-8
Cc1ccc(NC(=O)CS(=O)c2ccccc2N)c(C)c1 (configuration not stated),0,0.2,-2,7,11,-3
CCN=C1SC(CC(=O)Nc2ccccc2)C(=O)N1CC (configuration not stated),14&5,0.1&0.8,-25&-3,3&7,6,-6&-4
CCOC(=O)C1=C(COC(=O)/C=C/c2ccc(Cl)cc2)NC(=O)NC1C (configuration not stated),-2,-0.7,-2,0,10,5
CCO[C@H]1OC(C(=O)NCc2ccccc2)=C[C@@H](C2CCCCC2)[C@@H]1CCCO,1,0.4,-6,0,-10,5
N/C(=N\OC(=O)c1ccccc1[N+](=O)[O-])c1ccccn1,2,0.4,?,1,3,-6
Cc1ccccc1C(=O)NC1CCN(C(=O)NCc2ccccc2)CC1,0,-0.7,-9,-18,0,-2
Cc1ccc(C(=O)Nc2ccccc2C(=O)N2CCCC2)cc1[N+](=O)[O-],-6,0.0,-11,-1,-3,6

Compound profiles, as listed above. Order of screens: CtBP-E1A blk | TRPML1 ag | D2 PAM | Six1-Eya2 inh | TRPV1 potentiator | TRPML1 blocker
O=c1ccnc(NCCc2ccccc2)[nH]1 is entered as -5 | -0.5 | 7 | 4 | -25 | -5
CNC(=O)NC1CCCc2ccccc21 (configuration not stated) is entered as 2 | 0.4 | 1 | 2 | -18 | -14
COc1ccc([C@@H]2[C@@H]3C(=O)N(C(C)(C)C)C(=O)[C@@H]3[C@]3(C)C(=O)N(c4ccc(C)cc4)C(=O)N23)cc1 is entered as 0 | 0.0 | -10 | -5 | -3 | 52

Additional compounds follow.
molecule,CtBP-E1A blk,TRPML1 ag,D2 PAM,Six1-Eya2 inh,TRPV1 potentiator,TRPML1 blocker
Clc1ccc(-c2csc(N3CCc4ccccc4C3)n2)cc1,6,1.2,11,1,7,-12
CCCOc1ccc(N2CC(C(=O)Nc3ccccc3F)CC2=O)cc1 (configuration not stated),-1,-0.1,-20,1,-28,-9
Cc1sc(NC(=O)CCCCC(=O)Nc2sc(C)c(C)c2C(=O)O)c(C(=O)O)c1C,0,0.3,-3,30,.,?
Cc1nc2c3c4c(sc3n3c(SCC(=O)NCc5ccco5)nnc3n2n1)COC(C)(C)C4,-8,-0.5,-5,-22,0,8
Cc1ccc(C(=O)N2CCN(c3ccc(C(F)(F)F)cn3)CC2)cc1,7,3.2,25,2,14,4
COc1ccc(COC(=O)C2=C(C)NC(=O)NC2c2ccc(OC)c(OC)c2)cc1 (configuration not stated),.,-0.3,-18,8,2,-5
COC(=O)c1ccc2c(=O)n(CCCN3CCOCC3)c(=S)[nH]c2c1,-2,0.3,-19,-1,0,-5
Cc1nc(C(F)(F)F)ccc1C(=O)NCC(O)c1ccccc1 (configuration not stated),.,0.6,-10,0,-6,1
Cc1ccc(N2C(=O)c3n[nH]c(C)c3C2c2cccnc2)cc1 (configuration not stated),-1,-1.0,0,0,-6,3
Cc1ccc(CNC(=O)C(=O)NCCC2CCCCN2S(=O)(=O)c2ccccc2)cc1 (configuration not stated),4,0.2,8,-5,-4,-10
Cc1cccc(NC(=O)c2ccc(S(=O)(=O)N(C)c3ccccc3)cc2)n1,-1,-0.1,-4,8,.,7
O=C(CCl)NNC(=O)c1c(O)c2ccccc2[nH]c1=O,-19,0.7,0,-23,-2,-9
CC(=O)Nc1c(C(=O)O)ccc(C)c1OCc1ccccc1,5,0.2,-17,5,.,-3
CCN(C(=O)COC(=O)c1cc(-c2cccc3ccccc23)nc2ccccc12)C1CCS(=O)(=O)C1 (configuration not stated),-8,1.3,-16,2,6,22
Cc1nsc(Nc2ccc([N+](=O)[O-])cc2)c1C#N,3,-0.6,8,-1,-22,7
CC(C)n1nnnc1SCC(=O)N1CCN(Cc2ccc3c(c2)OCCO3)CC1,.,0.1,-6,0,-27,-12
O=C(NCc1ccc(F)cc1F)[C@@H]1CCCN1C(=O)[C@@H]1CCCN1C(=O)c1cccc2ccccc12,-3,-0.7,.,15,.,.
Cc1ccc(NC(=S)N(CCN2CCOCC2)Cc2cc3cc4c(cc3[nH]c2=O)OCCO4)cc1,-27,2.8,4,1,0,-9
O=C(CCC(=O)c1ccc(F)cc1)Nc1cccc(Br)c1,-4,2.4,-11,0,7,-13
COc1cc2sc3ccc(C#Cc4ccccn4)cc3c(=O)c2cc1OC,-1,-1.0,-51,0,.,-26
Cc1cc(C)nc(NC(=O)CSc2nccc(C)n2)n1,.,0.2,-1,0,-6,9
Cc1ccc(OCC(=O)Nc2ccc(CN3CCCCC3)cc2)c(C)c1,.,-0.6,-11,-12,16,-26
C=CCn1c(SCC(=O)NC2CCCC2)nc2scc(-c3ccco3)c2c1=O,0,2.1,?,-12,-15,0
Cc1c(C(=O)N/N=C/c2ccncc2)no[n+]1[O-],-7,-0.6,-3,1,18,7
CSC1=NC(=O)/C(=C/c2ccc(SC)cc2)S1,-2,-0.3,-8,-1,9,0
Cc1cccc(NC(=O)CSc2nc3ccc(N4C(=O)c5ccccc5C4=O)cc3s2)c1C,-1,2.9,0,-1,5,-12
O=C(C1=C(Nc2ccccc2)c2ccccc2S(=O)(=O)N1)c1ccccc1,4,3.8,-19,3,2,-17
Cc1ccc(S(=O)(=O)N2CCCCCC2)cc1C(=O)NCc1ccccn1,-9,-0.2,-6,-8,5,22
Nc1ncc(Br)cc1S(=O)(=O)N1CCCCCC1,5,0.4,1,3,10,-1
CCOC(=O)c1c(/N=C/N(C)C)sc(C(=O)OC)c1C,9,0.3,-4,-2,0,4
COc1cccc(C2c3c(oc4cc(C)c(C)cc4c3=O)C(=O)N2CCCN(C)C)c1 (configuration not stated),2,0.4,0,-6,.,35
CC(C)NC(=O)c1cc(C(=O)c2cc(Cl)ccc2O)coc1=N,-4,0.5,-8,-1,10,2
NC(=O)NCCCC(=O)NCC(c1ccccc1Cl)c1c[nH]c2ccccc12 (configuration not stated),.,-0.1,10,-1,7,4
C=CCNC(=O)c1ccccc1Cl,-7,0.5,-6,1,-6,2
COCCOC(=O)C1=C(C)Nc2cc(=O)[nH]c(=O)n2C1c1cccc([N+](=O)[O-])c1 (configuration not stated),2,1.6,-25,-7,16,26
O=C(Nc1nnc(SCC(=O)N2CCOCC2)s1)C1CC(=O)N(c2ccc(F)cc2)C1 (configuration not stated),3,0.0,9,1,-7,-3
COc1ccc(OCC(=O)Nc2ccccc2-c2ccccc2)cc1,-20,2.9,4,48,3,11
CC(C)(C)c1cc(Cl)c(O)c(NC(=S)NC(=O)c2cccnc2)c1,.,0.2,-16,-1,?,-22
CCCCCC(=O)N/N=C/c1ccc(N(C)C)cc1,-17,-0.6,-2,-5,27,8
O=C(O)C1CC=CCC1C(=O)N1CCN(c2nc(-c3ccccc3Cl)c3cc(Br)ccc3n2)CC1 (configuration not stated),-2,0.3,-17,10,6,-7
CCc1ccccc1NC(=O)CSc1nnc(CCNC(=O)OC(C)(C)C)o1,6,-1.0,-8,-10,2,6
COC(=O)c1ccc2nc(C3CCCCC3)c(Cc3cccc(Cl)c3)n2c1,5,0.8,-17,2,.,.
CCc1ccccc1N(CC(=O)NCCc1ccccc1)C(=O)CCC(=O)Nc1ccccn1,0,0.3,-27,-16,-9,-14
Cc1nc2cc(Oc3nc(NCCN(C)C)nc4ccsc34)ccc2s1,-7,0.3,-14,-27,.,.
CCOC(=O)c1ccc(N2CCOCC2)c(NC(=O)COCC(=O)O)c1,0,-0.4,-2,4,17,-6
CCN(CC)S(=O)(=O)c1cccc(NC(=O)c2ccc(C#N)cc2)c1,-12,0.2,-1,3,-27,21
NC(=O)c1ccccc1NC(=O)CC12CC3CC(CC(Br)(C3)C1)C2,7,-0.3,-5,-2,-16,4
CN(C)CCCN1c2ccccc2CCc2ccc(Cl)cc21,-19,0.4,-23,-4,20,11
N#C/C(=C\c1ccc([N+](=O)[O-])o1)C(=O)Nc1ccc(F)cc1,-12,5.4,16,-29,-3,-7
Cn1c(C(=O)N2CCN(c3ncccn3)CC2)cc2c(=O)n(C)c3ccccc3c21,2,3.0,3,-17,18,-3

Continuation.
molecule,CtBP-E1A blk,TRPML1 ag,D2 PAM,Six1-Eya2 inh,TRPV1 potentiator,TRPML1 blocker
NC(=NC(=O)c1cccc(C(F)(F)F)c1)c1ccc(C(F)(F)F)cn1,-4,4.4,-4,9,-12,14
CCc1ccc(NC(=O)C(C)OC(=O)c2cc(=O)[nH]c3ccc(S(=O)(=O)Nc4ccc(F)cc4)cc23)cc1 (configuration not stated),.,2.4,-3,-3,-25,29
COCCNc1ncnc2c1ncn2[C@H]1CN(Cc2ccco2)C[C@@H](CO)O1,5,-0.1,4,-1,.,.
COc1cc(OC)cc(C(=O)NCCN2CCOCC2)c1,-1,1.1,-11,-1,0,-19
